Bioassay records: PubChem BioAssay, National Center for Advancing Translational Sciences (NCATS)
POLH inh – DNA polymerase eta (human) inhibition; Q9Y253; recombinant Pol eta, fluorescent DNA replication assay; Potency, µM (series often up to 114 µM), for inactives: top-dose activity change, negative = inhibition, usual class: inhibitors; actives 1.2% (n = 390,000); AID 588591; further: potency means the concentration at half of the fitted maximal effect; on the % scale 0 is the no-effect control and ±100 the full control effect
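Pol eta at 10 nM preincubated with compounds 15 min at room temperature; reaction started with fluorescent substrate (50 nM final) and read kinetically at 0 and 10 min.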
JMJD2A Tudor – JMJD2A Tudor domain (human) inhibition; O75164; AlphaScreen JMJD2A-Tudor / H3K4me3 peptide binding; Potency, µM (titrated, usually from 114 µM), without a hit: at the highest dose activity change, negative = inhibition, hits mostly inhibitors; actives 4.4% (n = 390,000); further: potency means the concentration at half of the fitted maximal effect; on the % scale 0 is the no-effect control and ±100 the full control effect; nearly all actives have a fitted effect of over 50% in size
PI4K2A inh – PI4K2A (human) kinase inhibition. Q9BTU6. purified PI4K2A, ADP-Glo luminescence, 1 h; stronger effect = lower value. activity change, negative = inhibition, % at 76.9 µM. actives 0.13% (n = 420,000). AID 1346378; in the data active means activity change below about -50%; inconclusive means mostly about -30% to -49%;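 further: -100% = wells without enzyme as full effect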
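In this quantitative HTS, ADP production by PI4K2A was quantified luminescently after 1 h at ambient temperature; 100 microM adenosine served as plate-quality control.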
PGK inhibitor – T. brucei PGK inhibition; PGK/GAPDH coupled, Kinase-Glo luminescence, 60 min; Potency, µM (series often up to 57.5 µM), without a hit: top-dose activity change, negative = inhibition, actives largely listed as inhibitors; actives 0.043% (n = 380,000); AID 602233; further: potency means the concentration at half of the fitted maximal effect; on the % scale 0 is the no-effect control and ±100 the full control effect; nearly all actives have a fitted effect of over 60% in size
Target sequence (P07378 whole entry, looked up): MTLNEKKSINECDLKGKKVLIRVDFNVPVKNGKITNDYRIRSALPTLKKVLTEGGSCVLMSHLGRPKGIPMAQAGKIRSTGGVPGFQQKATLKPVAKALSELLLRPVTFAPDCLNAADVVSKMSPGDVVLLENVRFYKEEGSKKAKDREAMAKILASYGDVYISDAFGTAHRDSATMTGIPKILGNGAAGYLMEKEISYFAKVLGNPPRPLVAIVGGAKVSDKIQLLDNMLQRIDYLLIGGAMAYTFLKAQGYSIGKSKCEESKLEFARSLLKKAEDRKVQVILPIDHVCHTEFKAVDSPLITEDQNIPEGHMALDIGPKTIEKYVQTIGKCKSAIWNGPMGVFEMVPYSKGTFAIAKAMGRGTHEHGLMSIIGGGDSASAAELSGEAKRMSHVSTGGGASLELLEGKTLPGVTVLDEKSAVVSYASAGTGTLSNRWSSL
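Recombinant glycosomal PGK reaction used 1,3-bisphosphoglycerate generated in-well by GAPDH (100nM final) in 100mM TEA pH 7.6, 5mM MgCl2, 0.01% Tween-20. After 60 minutes at room temperature, ATP was read by Kinase-Glo Plus luminescence end-point.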
GLS inhibitor – glutaminase GLS (human) inhibition; GLS enzymatic activity, qHTS titration; Potency, µM (doses to about 45.5 µM), for inactives: at the top dose activity change, negative = inhibition, actives largely listed as inhibitors; actives 0.21% (n = 410,000); AID 624170; further: potency means the concentration at half of the fitted maximal effect; on the % scale 0 is the no-effect control and ±100 the full control effect
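Enzyme dispensed in phosphate buffer (45 mM, pH 8.2, 0.02% Tween-20), compounds pinned in, then 1 mM L-glutamine solution and the glutamate oxidase–HRP–Amplex Red mix added; fluorescence read immediately and again after 30 min at room temperature.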
G9a inh – inhibitors of human histone lysine methyltransferase G9a. Q96KQ7. G9a H3K9 monomethylation, AlphaScreen, 2 h. Potency, µM (top dose mostly 102 µM), for inactives: top-dose activity, negative = inhibition, most hits filed as inhibitors. actives 8.8% (n = 350,000). AID 504332; further: potency means the concentration at half of the fitted maximal effect; on the % scale 0 is the no-effect control and ±100 the full control effect; nearly all actives have a fitted effect of over 75% in size
Target sequence (Q96KQ7 913-1193 limits assumed): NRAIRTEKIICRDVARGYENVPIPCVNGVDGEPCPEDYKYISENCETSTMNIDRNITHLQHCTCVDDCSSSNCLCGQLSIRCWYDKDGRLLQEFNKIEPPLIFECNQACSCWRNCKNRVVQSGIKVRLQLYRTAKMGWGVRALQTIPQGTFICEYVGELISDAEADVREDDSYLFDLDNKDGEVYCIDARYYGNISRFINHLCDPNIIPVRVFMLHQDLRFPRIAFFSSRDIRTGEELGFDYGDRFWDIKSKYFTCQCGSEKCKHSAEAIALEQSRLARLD
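AlphaScreen detection with an anti-monomethyl H3K9 antibody quantified product after a 2 h room-temperature reaction containing 500 nM biotinylated H3K9 peptide, 20 µM SAM and 20 nM enzyme, which had been preincubated 15 min with compound.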
Pin1 inh – human Pin1 inhibition; Potency, µM (series often up to 115 µM), without a hit: at the top dose activity, negative = inhibition, actives largely listed as inhibitors; actives 0.009% (n = 390,000); AID 504891; Pin1 FP peptide displacement, HiFluor488, 10 min; active means well fitted inhibition curve with a large enough effect in the polarisation, with a control signal flat, not every such curve was filed as active; inconclusive means small, poorly fitted or top-dose-only effect, or effect the other way, or a change in a side signal; inactive means no such curve, though single readings can be large or run the other way; the % refers to the polarisation; further: potency means the concentration at half of the fitted maximal effect; on the % scale 0 is the no-effect control and ±100 the full control effect
Target sequence (Q13526 whole entry, looked up): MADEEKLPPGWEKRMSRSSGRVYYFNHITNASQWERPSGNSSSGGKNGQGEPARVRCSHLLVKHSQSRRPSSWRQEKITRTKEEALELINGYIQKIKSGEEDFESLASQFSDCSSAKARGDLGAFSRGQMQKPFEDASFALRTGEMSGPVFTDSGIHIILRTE
HP1b binding inh – HP1-beta chromodomain-methylated histone interaction inhibition; actives 0.56% (n = 390,000); AID 540317; AlphaScreen HP1-beta / biotin-H3K9me3 peptide binding; Potency, µM (titrated, usually from 114 µM), inactives show at the top dose activity change, negative = inhibition, hits mostly inhibitors; further: potency means the concentration at half of the fitted maximal effect; nearly all actives have a fitted effect of over 70% in size; inactives centre near 23
Target sequence (P83916 whole entry, looked up): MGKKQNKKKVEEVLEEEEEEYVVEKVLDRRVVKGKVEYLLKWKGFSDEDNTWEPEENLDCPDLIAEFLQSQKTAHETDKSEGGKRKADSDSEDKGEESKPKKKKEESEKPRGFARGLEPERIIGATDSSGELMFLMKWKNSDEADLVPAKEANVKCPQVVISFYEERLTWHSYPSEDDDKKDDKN
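HP1-beta protein (50 nM final) preincubated 30 min at room temperature with biotinylated H3(1-18)K9me3 peptide (50 nM) in PBS pH 7.4, 0.01% Tween-20, then compound added for 30 min. AlphaScreen streptavidin donor/nickel chelate acceptor beads (10 ug/mL final), 30 min dark, luminescence read.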
* marks the source's active call; other numbers are inactive results; i = inactive; ? = inconclusive; / = no result given; [ ] = remark or other dose. Unless noted, the call rests on the fitted dose curve; in most records, active means well fitted curve in the direction sought with a large enough effect; inconclusive means small, poorly fitted or top-dose-only effect, or another doubt; inactive means no such curve, though single readings can be large; an effect the other way counts as inactive or inconclusive. A portion of the library, so the mix of outcomes need not match the whole.

SMILES	POLH inh	JMJD2A Tudor	PI4K2A inh	PGK inhibitor	GLS inhibitor	G9a inh	Pin1 inh	HP1b binding inh
CCOc1ccc(Nc2nc(Cc3nnc(SCC(=O)NC4CCCC4)n3C)cs2)cc1	-2.6%	?	-1.8	-7.5%	18.8%	28.2µM*	-1.1%	14.3%
Cc1cc(C)c(NC(=S)NC(NC(=O)c2ccccc2)C(Cl)(Cl)Cl)c(C)c1 (configuration not stated)	1.7%	-7.0%	3.9	0.3%	1.8%	-6.2%[59 µM]	-4.5%	16.8%
O=S(=O)(NC1CCN(Cc2ccccc2)CC1)c1cccc2cccnc12	-4.0%	-14.7%	6.6	-1.8%	-5.0%	2.6%	0.6%	16.9%
O=C(c1cc(-c2cccs2)nc2ccccc12)N1CCN(S(=O)(=O)c2cccc(F)c2)CC1	-11.7%	-11.3%	-3.1	4.9%	2.9%	?	21.4%	9.8%
CCOC(=O)c1c(NC(=O)c2cc3ccccc3c(=O)o2)sc2c1CCC(C)C2 (configuration not stated)	-9.4%	-4.1%	3.1	i	-7.6%	36.6%[activator][59 µM]	3.6%	70.2%[activator]
CCNC(=S)N/N=C1\CCCCc2ccccc21	-17.4%	?	-1.4	1.7%	14.1%	?	2.2%	?
CCCC(c1nnnn1CCOC)N1CCN(c2cccc(OC)c2)CC1 (configuration not stated)	-24.8%	-0.4%	8.9	1.1%	1.0%	44.7µM*	-1.6%	27.0%
COc1cc(/C=N/Nc2ccccc2[N+](=O)[O-])ccc1OC(=O)c1ccccc1F	-11.0%	?	-8.2	2.0%	0.0%	?	-6.1%	-24.2%
COc1ccc(OC)c(C2NC(=O)NC(C)=C2C(=O)Nc2cc(C)cc(C)c2)c1 (configuration not stated)	-12.7%	-16.6%	-0.7	4.7%	3.9%	-11.9%[59 µM]	2.1%	14.4%
COc1cccc(C(=O)Nc2cccc(OC(C)=O)c2)c1	-3.7%	-0.6%	-3.0	-1.1%[11.5 µM]	12.6%	-44.4%[12.7 µM]	-6.7%	22.4%
CCOC(=O)c1sc(Nc2ccccc2Cl)nc1C	-14.0%	16.5%	-8.2	i	12.8%	?	6.2%	58.3%[activator]
OCc1cnc(SCc2cccc(F)c2)n1Cc1ccc(F)cc1	-5.3%	-18.5%	-2.8	-2.7%	-4.9%	-47.8%[59 µM]	-0.8%	20.0%[57 µM]
CC(C)NC(=S)N/N=C1\CCCCc2ccccc21	-1.6%	?	3.1	/	19.5%	1.5%[59 µM]	1.1%	?
COc1ccc(OC)c([C@@H]2OCCC=C[C@H]2C)c1	-26.0%	5.0%	-0.7	-3.6%	-6.0%	0.9%	-0.3%	68.9%[activator]
C/C(CC(=O)Nc1ccc2c(c1)OCCO2)=N\NC(=O)c1ccccn1	-15.6%	-11.0%	1.9	-0.6%	3.1%	5.7%	2.3%	33.2%[activator]
O=[N+]([O-])c1ccccc1NCc1ccc(Cl)cc1	-12.0%	?	-0.5	1.8%	10.3%	?	1.1%	-33.6%
CCOc1ccc(C2=NNC(c3cccs3)=Nc3ccc(OC)cc32)cc1OCC	-9.8%	?	-0.3	i	-5.1%	?	16.3%	-9.5%
N#Cc1ccc(/C=C2\CCCCn3c2nc2cc(C(=O)O)ccc2c3=O)cc1	-7.2%	-0.7%	-3.6	-1.3%	-13.8%	-45.3%	1.1%	32.5%
O=C(CSc1ncc(-c2ccccc2)[nH]1)Nc1cccc(C(F)(F)F)c1	-13.5%	?	2.5	-9.0%	6.6%	?	1.6%	-18.6%
Cc1ccc(-n2c(Cc3cccn3C)nnc2SCC(=O)NCc2ccco2)cc1	-15.5%	?	-5.1	-3.4%	10.7%	50.1µM*	?	6.5%
CCOc1ccc(OCC)c(NC(=O)CCn2cccc2)c1	-11.8%	?	5.4	i	-8.3%	?	-1.6%	-31.1%
Cc1ccc(-c2nc(N3CCN(c4ccccc4Cl)CC3)c3ccccc3n2)cc1	-20.5%	4.6%	-4.2	5.6%	-0.5%	3.5%[59 µM]	3.5%	49.9%[activator]
CCOc1ccc2oc(=O)cc(CN3CCN(c4ccccc4)CC3)c2c1	-4.3%	-20.1%	-2.8	1.3%	4.8%	-28.0%[59 µM]	10.7%	20.4%
Oc1ccc(CNC2CCCCC2)cc1	-6.7%	3.4%	0.4	-8.2%	18.0%	38.2%[0.501 µM]	-0.5%	24.2%

Structures listed above printed as active in G9a inh:
SMILES	POLH inh	JMJD2A Tudor	PI4K2A inh	PGK inhibitor	GLS inhibitor	G9a inh	Pin1 inh	HP1b binding inh
CCOc1ccc(Nc2nc(Cc3nnc(SCC(=O)NC4CCCC4)n3C)cs2)cc1	-2.6%	?	-1.8	-7.5%	18.8%	28.2µM*	-1.1%	14.3%
CCCC(c1nnnn1CCOC)N1CCN(c2cccc(OC)c2)CC1 (configuration not stated)	-24.8%	-0.4%	8.9	1.1%	1.0%	44.7µM*	-1.6%	27.0%
Cc1ccc(-n2c(Cc3cccn3C)nnc2SCC(=O)NCc2ccco2)cc1	-15.5%	?	-5.1	-3.4%	10.7%	50.1µM*	?	6.5%

Continued.
SMILES	POLH inh	JMJD2A Tudor	PI4K2A inh	PGK inhibitor	GLS inhibitor	G9a inh	Pin1 inh	HP1b binding inh
CC(C)Oc1cccc(C(=O)C2CCCN(Cc3cnc(N4CCCC4)s3)C2)c1 (configuration not stated)	-11.4%	?	-0.2	1.0%	8.1%	22.0%[12.7 µM]	2.4%	-24.6%
O=C(NC(=S)Nc1ccc(CN2CCCCC2)cc1)c1cccc(OCc2ccccc2)c1	-8.9%	?	0.5	-3.2%	-2.6%	?	2.1%	?
O=S(=O)(Nc1ccc(-n2cccc2)cc1)c1ccc(Cl)cc1Cl	-18.2%	?	-2.2	-0.5%	17.1%	?	2.0%	?
Cc1cccc(-n2nc([N+](=O)[O-])c(=NC3CCN(Cc4ccccc4)CC3)n2O)c1	-5.9%	?	2.1	i	-2.3%	-41.8%	-1.5%	?
Cc1ccc(CNC(=O)C2CCCN(Cc3nc(-c4cccc(C)c4)oc3C)C2)cc1 (configuration not stated)	-17.6%	?	-1.1	-6.3%	0.9%	?	-8.4%	4.8%
COc1ccc(CNC(=O)CCC(=O)N2CC3CCCN3c3ccccc32)c(OC)c1 (configuration not stated)	-8.3%	?	2.8	-3.2%	4.1%	-15.5%[59 µM]	5.9%	-37.6%
CCOC(=O)C(C)N1C(=O)S/C(=C/c2ccc3c(c2)n(C)c(=O)n3C)C1=O (configuration not stated)	-14.3%	-19.3%	2.4	3.9%	10.7%	-19.9%	1.8%	31.9%
CCCCNc1nc2c(c(=O)n(C)c(=O)n2C)n1CCC	2.4%	-26.2%	2.7	-8.4%	14.5%	13.4%[12.7 µM]	-0.1%	26.7%
CC(=O)c1c(C)[nH]c(C(=O)OCC(=O)N2CCN(S(=O)(=O)c3ccc(C)cc3C)CC2)c1C	-4.6%	?	2.0	-10.8%	8.0%	-5.7%[59 µM]	?	-7.9%
COc1ccc(-n2c(Cc3cccn3C)nnc2SCC(=O)Nc2ccc(C)cc2)cc1	-23.0%	-33.8%	7.7	-7.0%	-4.1%	35.5µM*	-10.7%	5.5%
COc1ccccc1-c1nnc(NC(=O)c2ccc(S(=O)(=O)N(C)CC3CCCO3)cc2)o1 (configuration not stated)	-3.7%	?	-2.4	-7.6%	10.9%	45.9%	0.1%	27.8%
COc1cc(-c2nc3ccccn3c2NCC2CCCO2)ccc1O (configuration not stated)	4.2%	-34.3%	-0.3	-6.9%	62.1%[activator]	?	-8.2%	-7.2%
COc1ccc(CNC(=S)N/N=C(\C)c2ccc(OC)cc2)cc1	-22.7%	?	5.1	i	-15.9%	?	-4.1%	?
CC(C#CCN1CCCCC1)OCCOCc1ccccc1 (configuration not stated)	5.1%	-9.0%	-1.2	-1.3%	9.8%	41.9%[12.7 µM]	-2.0%	18.3%
O=C(c1ccc(CSCc2ccccc2F)o1)N1CCN(c2ccc(N3CCOCC3)nn2)CC1	-5.7%	-18.4%	-3.5	-4.8%	9.3%	39.8µM*	-7.9%	27.1%
CC1CCCN(S(=O)(=O)c2ccc(C(=O)Nc3nnc(-c4ccco4)o3)cc2)C1 (configuration not stated)	-13.3%	-19.9%	-5.0	9.1%	6.1%	/	1.1%	33.7%
O=C(NNC(=O)C1CCCCC1)c1cnccn1	-8.8%	?	2.0	-4.0%	6.7%	?	-4.7%	19.1%
COC(=O)c1cccc(NC(=O)NC2CCCN2S(=O)(=O)c2ccc(Cl)cc2)c1 (configuration not stated)	-19.3%	-11.5%	-6.5	i	1.8%	-29.5%[12.7 µM]	-7.4%	40.4%
COc1ccccc1-n1ccnc1SCC(=O)NC(C)(C)C	-10.8%	-6.0%	-3.2	-6.6%	-6.3%	19.7%	-9.5%	35.4%
COc1ccc(SCCc2ccncc2)cc1	5.8%	1.4%	1.9	-3.8%	6.2%	25.1µM*	-1.8%	44.3%[activator]
CCCCNC(=O)C1CCN(C(=O)N2CC(C)Oc3ccc(Cl)cc32)CC1 (configuration not stated)	-12.3%	?	-1.6	-11.5%	-3.4%	8.91µM*	24.8%	-3.9%
Cc1ccc(C(=O)c2cc(C)sc2N)cc1	-14.2%	?	0.3	-6.6%	?	39.8µM*	8.8%	?
O=C(CSc1ccc2nnc(-c3ccccn3)n2n1)Nc1cccc(F)c1	-20.7%	-33.6%	7.9	9.5%	24.3%	/	-1.0%	24.6%
COCCCNC(=S)N/N=C/c1ccc(N(C)C)cc1	-20.9%	-31.1%[57.1 µM]	-0.1	-7.7%	11.3%	?	-3.8%	-10.5%
O=C1Nc2c(c(=O)[nH]c(=O)n2-c2ccc(F)cc2)C1(NS(=O)(=O)c1ccccc1)C(F)(F)F (configuration not stated)	-8.7%	-12.4%	1.5	-0.5%	-12.1%	/	2.1%	31.9%
CC(C)Sc1nc2sc3c(c2c2nnc(SCC(=O)NCc4ccco4)n12)CCCC3	4.47µM*	?	-3.4	-8.0%	-10.1%	-37.7%[12.7 µM]	?	-21.0%
COc1ccccc1N1CCN(C(=O)c2ccc(-c3ccc(Cl)cc3)o2)CC1	-14.0%	?	-2.6	-0.5%	5.1%	-14.3%[12.7 µM]	14.7%	-27.5%
CCc1ccc(NC(=O)C(=O)NNC(=O)COc2cccc(OC)c2)cc1	-4.2%	-18.9%	3.2	-8.2%	-0.6%	3.7%[59 µM]	6.2%	32.0%
